Bioassay records: PubChem BioAssay, several laboratories
Arbovirus anti: arbovirus infection inhibition; arbovirus infection cell-based antiviral screen; inhibition, % at 10 µM; 0.37% of 200,000 active;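 active = inhibition from about 30%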;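 note: bluetongue infection of BSR cells; cell survival read as ATP light after 72 h; 0% = infected wells without compound and 100% = uninfected wells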
RecA intein inh: inhibitors of M. tuberculosis RecA intein splicing; P9WHJ3; cell-free RecA intein splicing, fluorescence; inhibition, %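 (about 9 µM by stock and volumes)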; 0.75% of 290,000 active; AID 2221; in the data active = inhibition above about 30%; inconclusive = no clear call, values can overlap the other calls;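 note: 0% = vehicle wells and 100% = reference inhibitor control wells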
Target sequence (P9WHJ3 whole entry, looked up): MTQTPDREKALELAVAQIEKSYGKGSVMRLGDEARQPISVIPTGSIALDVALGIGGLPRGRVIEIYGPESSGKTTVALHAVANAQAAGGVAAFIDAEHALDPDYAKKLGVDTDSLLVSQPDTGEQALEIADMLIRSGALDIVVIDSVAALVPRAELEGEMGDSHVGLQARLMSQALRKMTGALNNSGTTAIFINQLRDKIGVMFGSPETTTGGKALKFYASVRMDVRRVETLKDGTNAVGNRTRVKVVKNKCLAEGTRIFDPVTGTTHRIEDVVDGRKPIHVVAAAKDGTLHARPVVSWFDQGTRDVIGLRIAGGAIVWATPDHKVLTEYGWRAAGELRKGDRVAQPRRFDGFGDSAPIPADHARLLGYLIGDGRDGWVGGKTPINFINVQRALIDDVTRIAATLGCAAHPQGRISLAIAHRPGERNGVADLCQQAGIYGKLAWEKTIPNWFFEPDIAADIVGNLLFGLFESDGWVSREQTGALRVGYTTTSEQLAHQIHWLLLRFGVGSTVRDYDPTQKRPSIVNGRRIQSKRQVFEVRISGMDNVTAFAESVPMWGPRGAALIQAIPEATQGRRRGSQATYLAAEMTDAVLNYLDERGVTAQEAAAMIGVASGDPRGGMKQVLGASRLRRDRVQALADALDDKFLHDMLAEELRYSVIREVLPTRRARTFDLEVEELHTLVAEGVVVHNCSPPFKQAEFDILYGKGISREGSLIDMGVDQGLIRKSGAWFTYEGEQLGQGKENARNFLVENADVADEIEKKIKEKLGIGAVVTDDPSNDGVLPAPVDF
Mtb bLac sens: beta-lactam sensitization of Mtb H37Rv | 0.27% of 330,000 active | inhibition, % at 25 µM | M. tuberculosis H37Rv growth with meropenem, percent inhibition; hits of this screen are not shown here;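 active = about 74% or more and at least 40 points above the plate without the antibiotic, then above 30% in a dose series; inconclusive = first-round hits that could not be retested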;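 note: growth measured after seven days incubation then overnight dye step; 0% = bacteria only wells and 100% = bacteria with antibiotic; twin plates without the antibiotic show which effects depend on it; some results filed as inactive read as strong as hits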
YopH PTP inh: inhibitors of Yersinia enterocolitica YopH tyrosine phosphatase; fluorescence Ex485/Em525; inhibition, %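 (about 10 µM by stock and volumes)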; 0.16% of 140,000 active; AID 898;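 active = inhibition of 50% or more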;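 note: controls were vehicle for no effect and minimum signal wells for full effect; inactives centre near -20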
Mtb growth: M. tuberculosis H37Rv growth inhibitors, H37Rv strain (AID 1626); M. tuberculosis H37Rv growth inhibition; higher % means a stronger effect; inhibition, % at 10 µM, or IC50 in µM where a hit was titrated; 0.95% of 220,000 active;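 active = confirmed in a dose series; inconclusive = inhibition above 80% but not taken into the dose series; inactive = below 80% or under 30% at every dose of the series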;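 note: bacteria incubated seven days before Alamar blue readout; 0% = bacteria only wells and 100% = bacteria with antibiotic wells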
Arbovirus anti repeat: further read-out of Arbovirus anti, marked with its call; inhibition, %; measured here: 10K subset replicate screen; many hits read low in the repeat;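 first of two repeat runs on a subset; 0% = infected and 100% = uninfected wells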
* hit, by the source's call. The list is partial; the hit share may differ from the screen's.

What do the screens show for `Cc1nn2c(N3CCCC3)cc(C(C)C)nc2c1-c1ccccc1`?
Arbovirus anti: 8; RecA intein inh: -3.8; Mtb bLac sens: 4; YopH PTP inh: -43; Mtb growth: -4%

Results for O=C(CN1C(=O)NC2(CCCC2)C1=O)Nc1ccccc1F ?
Arbovirus anti: 0; RecA intein inh: -3.9; Mtb bLac sens: -8; YopH PTP inh: 0; Mtb growth: -7%

What do the screens show for `Cc1ccccc1-n1c(C)nnc1SCC(=O)NCC1CCCO1` (centres undefined)?
Arbovirus anti: 17; RecA intein inh: 1.3; Mtb bLac sens: -4; YopH PTP inh: 0; Mtb growth: -3%

What do the screens show for `Cc1nc(Cl)c2oc3ccccc3c2n1`?
Arbovirus anti: -21; RecA intein inh: 0.2; Mtb bLac sens: -4; YopH PTP inh: -42; Mtb growth: -6%

What do the screens show for `N/C(=N\OC(=O)COc1ccc2ccccc2c1Br)c1cccnc1`?
Arbovirus anti: 14; RecA intein inh: 4.2; Mtb bLac sens: 13; Mtb growth: 7%

Results for COc1ccc(C2=NCCc3cc(OC)c(OC)cc32)cc1 ?
Arbovirus anti: 2; RecA intein inh: 2.6; Mtb bLac sens: -7; YopH PTP inh: 22; Mtb growth: 0%

What do the screens show for `CC(C)(C)c1csc(NC(=O)CSC2=NCCS2)n1`?
RecA intein inh: 23; Mtb bLac sens: -3

What do the screens show for `O=C(Cn1nnc(-c2ccccc2)n1)NCc1ccc2c(c1)OCO2`?
Arbovirus anti: -8; RecA intein inh: -0.3; Mtb bLac sens: 20; YopH PTP inh: -31; Mtb growth: -10%

How did Cc1c(Cl)c([N+](=O)[O-])nn1CCCC(=O)NCCc1ccccc1 do in these assays?
Arbovirus anti: 1; RecA intein inh: 0.2; Mtb bLac sens: -5; Mtb growth: 9%

Results for COC(=O)C1=C(C)NC(=O)C1(Nc1nccs1)C(F)(F)F (centres undefined) ?
Arbovirus anti: 1; RecA intein inh: -0.9; Mtb bLac sens: 0; YopH PTP inh: -21; Mtb growth: -1%

What do the screens show for `O=C(NC1CC2CCCC(C1)N2C(=S)Nc1ccccc1)C1CC1` (centres undefined)?
RecA intein inh: 0.5; Mtb bLac sens: -7

Results for O=C(c1ccc2oc(CCCc3ccccc3)nc2c1)N1CCCCC1CO (centres undefined) ?
RecA intein inh: -0.2; Mtb bLac sens: 4

What do the screens show for `Cc1cccc(C(=O)Nc2ccccc2SCC2CSc3nc4ccccc4c(=O)n32)c1` (centres undefined)?
Arbovirus anti: 16; RecA intein inh: 1.5; Mtb bLac sens: 40; YopH PTP inh: 5

Results for CCS(=O)(=O)N1CCN(c2ccc([N+](=O)[O-])c(N3CCOCC3)c2)CC1 ?
Arbovirus anti: -1; RecA intein inh: 2.4; Mtb bLac sens: 2; YopH PTP inh: -14; Mtb growth: 4%

How did CC(=O)Nc1cccc(NC(=O)CSc2nccn2Cc2ccc(F)cc2)c1 do in these assays?
RecA intein inh: -1.4; Mtb bLac sens: 4

How did Cc1ccccc1C(=O)N1CCC(C(=O)Nc2ccc3c(c2)OCCO3)CC1 do in these assays?
Arbovirus anti: -3; RecA intein inh: 1.7; Mtb bLac sens: -6; YopH PTP inh: 9; Mtb growth: 7%

What do the screens show for `COC(=O)NC(NS(=O)(=O)c1ccccc1)(C(=O)OC)C(F)(F)F` (centres undefined)?
RecA intein inh: -1.1; Mtb bLac sens: -4; Mtb growth: 1%

Results for Cc1c(-n2c(-c3ccccc3Cl)n[nH]c2=S)c(=O)n(-c2ccccc2)n1C ?
Arbovirus anti: 3; RecA intein inh: 0.1; Mtb bLac sens: -7; Mtb growth: 2%

How did CCCCCN(C(=O)CCC(=O)OCc1cccc(Br)c1)c1c(N)n(CCCC)c(=O)[nH]c1=O do in these assays?
RecA intein inh: 1.4; Mtb bLac sens: -9

How did CCOC(=O)C1/C(=N\O)CC(C)(O)C(C(=O)OCC)C1c1ccc(OC)c(OC)c1 (centres undefined) do in these assays?
Arbovirus anti: 6; RecA intein inh: -0.4; Mtb bLac sens: 0; YopH PTP inh: -17; Mtb growth: 2%

What do the screens show for `O=C(Nc1cccnc1Cl)c1cc([N+](=O)[O-])ccc1Cl`?
Arbovirus anti: 7; RecA intein inh: 2.0; Mtb bLac sens: 10; Mtb growth: -7%

What do the screens show for `COc1ccc(NC(=O)C2CCC(C)(C(=O)O)C2(C)C)cc1` (centres undefined)?
Arbovirus anti: 9; RecA intein inh: -2.8; Mtb bLac sens: 0; YopH PTP inh: -22; Mtb growth: -10%; Arbovirus anti repeat: 2

How did O=S1(=O)CCO[C@H]2Cc3ccccc3[C@H]2N1Cc1cccc(F)c1 do in these assays?
RecA intein inh: 2.5; Mtb bLac sens: 71

Results for CCCc1nnc(SCC(=O)Nc2ccc(OC)cc2)o1 ?
RecA intein inh: -2.9; Mtb bLac sens: 76

How did COc1ccc(-c2nnc(SCC(=O)OC3CCCCC3)o2)cc1OC do in these assays?
Arbovirus anti: 0; RecA intein inh: -1.5; Mtb bLac sens: 98; YopH PTP inh: -43; Mtb growth: <0.2µM*

What do the screens show for `CCOC(=O)CCCCC(=O)c1[nH]c(=O)[nH]c1CSc1nc(-c2ccccc2)c(C#N)c(=O)[nH]1`?
Arbovirus anti: 5; RecA intein inh: -1.0; Mtb bLac sens: -6; YopH PTP inh: -5; Mtb growth: -11%

What do the screens show for `CCC1c2ccc(C)n2CCN1C(=O)Nc1ccccc1C(=O)OC` (centres undefined)?
Arbovirus anti: 1; RecA intein inh: 1.9; Mtb bLac sens: -11; YopH PTP inh: 28; Mtb growth: 7%

Results for CC(C)CN(CCCNC(=O)CN1C(=O)COc2ccc(S(=O)(=O)N3CCCC3)cc21)CC(C)C ?
Arbovirus anti: -3; RecA intein inh: 0.2; Mtb bLac sens: 3; Mtb growth: -2%

Results for Cc1ccc(OCCC(=O)Nc2ccccc2C(=O)NC2CC2)cc1 ?
RecA intein inh: -1.2; Mtb bLac sens: 6

Results for Cc1cccc(/C=N\NC(=O)c2ccccc2-n2cccc2)c1 ?
Arbovirus anti: -4; RecA intein inh: 2.9; Mtb bLac sens: 2; Mtb growth: -2%

What do the screens show for `Nc1cc(N)nc(SCC(=O)Nc2ccccc2N2CCOCC2)n1`?
RecA intein inh: -3.5; Mtb bLac sens: -7; Mtb growth: -14%

Results for O=C(O)CN(C1CCCCC1)S(=O)(=O)c1ccc(F)cc1 ?
Arbovirus anti: 7; RecA intein inh: 0.5; Mtb bLac sens: -3; Mtb growth: 1%

How did Cc1ccc(NC(=O)[C@@]2(CC(=O)O)CC(/C=C/c3ccccc3)=NO2)c(C)c1 do in these assays?
RecA intein inh: 1.2; Mtb bLac sens: -11

What do the screens show for `CN1CCN(C(=O)C2CC(=O)N(c3ccc(Cl)cc3)C2)CC1` (centres undefined)?
RecA intein inh: 1.4; Mtb bLac sens: -10

Results for CC(NC(=O)C1CCCN1C(=O)OCc1ccccc1)c1ccccc1 (centres undefined) ?
Arbovirus anti: 5; RecA intein inh: -0.8; Mtb bLac sens: 0; Mtb growth: -5%

Results for CCN(CC)CCNC(=O)C(=O)NCC1OCCN1C(=O)c1ccc2c(c1)OCO2 (centres undefined) ?
Arbovirus anti: 5; RecA intein inh: -3.2; Mtb bLac sens: -3; YopH PTP inh: -23; Mtb growth: 3%

Results for O=C(COc1cccc(Br)c1)NN=C1c2ccccc2-c2ccccc21 ?
Arbovirus anti: -10; RecA intein inh: 0.8; Mtb bLac sens: -2; YopH PTP inh: -28; Mtb growth: -6%

Results for [O-]/C(=C(\C(=S)Nc1ccccc1F)[n+]1ccccc1)c1ccc(OC(F)F)cc1 ?
RecA intein inh: 1.1; Mtb bLac sens: 2; Mtb growth: -2%

What do the screens show for `O=C(CC12CC3CC(CC(C3)C1)C2)NCc1ccco1`?
Arbovirus anti: -2; RecA intein inh: -0.5; Mtb bLac sens: 1; Mtb growth: 2%

How did O=C(COc1ncnc2sccc12)NC1CCS(=O)(=O)C1 (centres undefined) do in these assays?
RecA intein inh: -1.0; Mtb bLac sens: 1; Mtb growth: -14%

How did O=C(Nc1ccc(N2CCN(Cc3ccccc3)CC2)cc1)c1ccco1 do in these assays?
RecA intein inh: -4.3; Mtb bLac sens: 4

Results for Cc1cccc(-n2c(O)c(C=Nc3cc(O)ccc3C)c3ccccc3c2=O)n1 ?
Arbovirus anti: -9; RecA intein inh: -2.9; Mtb bLac sens: 5; Mtb growth: 0%

Results for c1ccc(Oc2cc(-c3ccccc3)nc(-c3ccccc3)n2)cc1 ?
Arbovirus anti: -5; RecA intein inh: 9.0; Mtb bLac sens: 4; YopH PTP inh: -3; Mtb growth: 8%

What do the screens show for `O=C(NCc1ccccn1)C(=O)C1C(=O)Nc2ccccc21` (centres undefined)?
Arbovirus anti: 1; RecA intein inh: -1.0; Mtb bLac sens: -2; Mtb growth: -3%

Results for NS(=O)(=O)c1ccc(N2N=C(c3ccc(Br)cc3)CC2c2ccc(F)cc2)cc1 (centres undefined) ?
Arbovirus anti: -41; RecA intein inh: -86; Mtb bLac sens: 97; YopH PTP inh: -26; Mtb growth: 35%

How did Cc1cc(C)nc(SCc2nnc(SCC(=O)O)n2-c2ccccc2)n1 do in these assays?
Arbovirus anti: 1; RecA intein inh: -1.4; Mtb bLac sens: -6; Mtb growth: -21%

What do the screens show for `Cc1c(CCOC(=O)C2C3CC4CC(C3)CC2C4)sc[n+]1CC(=O)c1ccc(Br)cc1` (centres undefined)?
Arbovirus anti: -35; RecA intein inh: 18; Mtb bLac sens: 2; YopH PTP inh: -30; Mtb growth: 70%

What do the screens show for `N#CC1=C(S)N(c2ccc(F)cc2)C2(CCCCC2)NC1=O`?
Arbovirus anti: 1; RecA intein inh: -0.7; Mtb bLac sens: 0; Mtb growth: 3%

What do the screens show for `O=C1CC(NS(=O)(=O)c2ccccc2F)CN1c1ccc2c(c1)OCCO2` (centres undefined)?
RecA intein inh: 0.6; Mtb bLac sens: -12

Results for CCOC(=O)c1cnc(-n2nc(C)cc2C)nc1NCc1ccc2c(c1)OCO2 ?
Arbovirus anti: 2; RecA intein inh: 1.1; Mtb bLac sens: inconclusive; YopH PTP inh: -56; Mtb growth: 4.6µM*

What do the screens show for `COc1ccc(CNC(=O)Cc2cccs2)cc1`?
RecA intein inh: 2.3; Mtb bLac sens: 6

How did Nc1c(Br)c(=O)[nH]c(=O)n1-c1ccccc1 do in these assays?
RecA intein inh: 1.7; Mtb bLac sens: 4

Results for COc1ccccc1NS(=O)(=O)c1c(C)[nH]c(C)c1C(=O)N1CCCC1 ?
RecA intein inh: 1.9; Mtb bLac sens: -8

How did CCN(CC(=O)NCc1cccs1)C(=O)c1cc(S(=O)(=O)NCc2ccccc2)ccc1C do in these assays?
RecA intein inh: 1.3; Mtb bLac sens: 5

How did CCC(=O)NC1CCN(C(=S)NC)CC1 do in these assays?
Arbovirus anti: 2; RecA intein inh: 0.9; Mtb bLac sens: -8; Mtb growth: -3%

What do the screens show for `CC1=CSC2=NC(=O)/C(=C\c3cccn3-c3ccccc3)C(=N)N12`?
Arbovirus anti: -3; RecA intein inh: -5.5; Mtb bLac sens: 28; YopH PTP inh: -5; Mtb growth: 1%

Results for Cc1c(CC(=O)O)c(=O)oc2c(C)c(OCc3ccccc3Br)ccc12 ?
RecA intein inh: 2.7; Mtb bLac sens: -5

What do the screens show for `CCOc1ccc(-c2c(C(=O)N/N=C/c3cccc(Br)c3)nnn2-c2nonc2N)cc1`?
RecA intein inh: -0.9; Mtb bLac sens: 14

What do the screens show for `CCS(=O)(=O)N1CCN(Cc2nc3ccccc3c(=O)[nH]2)CC1`?
Arbovirus anti: 2; RecA intein inh: -0.3; Mtb bLac sens: -3; YopH PTP inh: -13; Mtb growth: -7%; Arbovirus anti repeat: 2
